Screening data from PubChem BioAssay.
Rango dissoc inh = inhibitors of RanGTP-induced Rango-importin beta complex dissociation | AID 540253 | Potency, µM (top dose mostly 46.1 µM), without a hit: at the top dose activity change, negative = inhibition | O95149+P62826 | 340,000 compounds, 0.071% hits | Biochemical FRET Rango-importin beta, RanGTP-induced dissociation; active means falling FRET ratio curve, often poorly fitted, with flat reads before Ran was added; inconclusive means other falling curves, or compound fluorescence or quenching; inactive means flat or rising ratio curve;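 also: potency is read from the fitted curve at half-maximal effect; % of control where 0% means no effect; nearly all actives have a fitted effect of over 45% in size; -100% = wells without RanGTP and RCC1; the record marks most hits as doubtful in a second field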
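Rango/importin beta premix (0.1/0.25 uM final), PBS + 1 mM DTT + 0.02% Tween-20 + 0.1% BSA; cpd 5 min RT; FRET pre-read; + RanGTP-RCC1 (0.6 uM Ran, 2 mM GTP, 0.2 uM RCC1); 45 min RT; FRET post-read, ex 430, em 486/530 nm.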
Rango-impB inh = Rango-importin beta binding inhibition; Q14974; Rango CFP/YFP FRET sensor + importin beta, 45 min; Potency, µM (titrated, usually from 92.2 µM), for inactives: top-dose inhibition of complex formation; 340,000 compounds, 0.031% hits; active = rising FRET ratio curve, often small or poorly fitted; inconclusive = mostly compound fluorescence or quenching in the first reads; inactive = flat curves in all reads;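 also: potency is read from the fitted curve at half-maximal effect; 0% = DMSO wells and 100% = buffer wells lacking importin beta; nearly all actives have a fitted effect of over 15% in size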
Target sequence (Q14974 whole entry, looked up): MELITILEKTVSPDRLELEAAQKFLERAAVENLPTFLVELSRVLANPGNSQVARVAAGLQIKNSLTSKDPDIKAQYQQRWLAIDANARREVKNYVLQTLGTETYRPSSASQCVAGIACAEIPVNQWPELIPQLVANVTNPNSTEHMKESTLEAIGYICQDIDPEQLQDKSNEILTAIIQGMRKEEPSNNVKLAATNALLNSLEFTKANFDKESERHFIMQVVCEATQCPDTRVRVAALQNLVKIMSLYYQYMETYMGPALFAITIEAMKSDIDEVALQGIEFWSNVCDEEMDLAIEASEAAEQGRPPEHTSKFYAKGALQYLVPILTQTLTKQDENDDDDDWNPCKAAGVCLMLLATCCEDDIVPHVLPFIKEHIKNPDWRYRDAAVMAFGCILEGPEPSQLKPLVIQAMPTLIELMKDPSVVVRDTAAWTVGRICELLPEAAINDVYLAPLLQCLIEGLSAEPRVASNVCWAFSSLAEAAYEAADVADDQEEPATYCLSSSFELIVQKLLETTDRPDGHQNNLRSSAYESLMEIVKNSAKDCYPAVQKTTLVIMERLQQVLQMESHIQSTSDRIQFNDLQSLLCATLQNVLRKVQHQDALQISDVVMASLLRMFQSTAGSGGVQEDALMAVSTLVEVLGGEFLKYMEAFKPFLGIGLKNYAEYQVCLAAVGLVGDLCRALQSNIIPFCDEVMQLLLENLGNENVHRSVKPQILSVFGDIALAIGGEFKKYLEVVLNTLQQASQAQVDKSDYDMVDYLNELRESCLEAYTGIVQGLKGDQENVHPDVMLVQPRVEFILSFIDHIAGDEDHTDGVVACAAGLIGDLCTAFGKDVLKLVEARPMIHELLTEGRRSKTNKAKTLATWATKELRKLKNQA
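FRET biosensor (snurportin 1 IBB flanked by EYFP and cerulean), 50 nM, with compound 5 min, then 0.125 microM importin beta in PBS, 1 mM DTT, 0.02% Tween-20, 0.1% BSA. CFP/YFP ratio read after 45 min at room temperature; pre-read flags interference.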
miR-21 FLuc = raises the signal of a miR-21 reporter | 340,000 tested, under 10 active | Potency, µM (titrated, usually from 38.3 µM), for the others: at the top dose reporter change, positive = more light | HeLa miR-21 FLuc reporter, luciferase, 48 h; active = well fitted rising curve with a large enough effect; inconclusive = small, poorly fitted or top-dose-only effect; inactive = no such curve, though single readings can be large or run the other way;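 also: % of control where 0% means no effect; miR-21 action dims this reporter so a rising signal means less miR-21 action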
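HeLa cells endogenously expressing miR-21, stably carrying CMV-driven firefly luciferase with a downstream miR-21 binding site, 2000 cells/well. Titrations up to approximately 40 uM, 48 hours; luciferase luminescence read.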
GLA inh pH 4.5 = blocks human alpha-galactosidase A at pH 4.5; AID 1467; P06280; activity change, negative = inhibition, % at 105 µM; 230,000 tested, under 10 active; purified enzyme, 4-MU-alpha-Gal fluorescence, pH 4.5; inconclusive = small, poorly fitted or top-dose-only inhibition, or a rising curve; inactive = flat fitted curve, though single readings scatter; no compound was filed as active;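 also: 0% = full activity with enzyme and -100% = basal without enzyme; dose as in the result columns while the protocol names 77 µM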
Active calls of the source: *; ? = inconclusive; . = no result given; & = joins results of further samples.

Rango dissoc inh	Rango-impB inh	miR-21 FLuc	GLA inh pH 4.5	Compound
?	?	-2%	.	CCNC(=O)/C(C#N)=C/c1c(N2CCN(C)CC2)nc2c(C)cccn2c1=O
1%	0.1%	-12%	.	O=C(NC(=S)NCc1cccnc1)c1ccccc1F
-5%	-2.2%	6%	5	Cc1c(NC(=O)COC(=O)C(c2ccc(Cl)cc2)C(C)C)c(=O)n(-c2ccccc2)n1C (configuration not stated)
-10%	-2.9%	0%	2	CC(=O)Nc1c(C)ccc(CNC(=O)COc2ccc(F)cc2)c1C
0%	-0.5%	-7%	.	O=C(Nc1ccc(N2CCN(C(=O)c3cccs3)CC2)cc1)c1ccco1
-10%	0.3%	0%	.	Cc1cc(=O)oc2cc(OCC(=O)NCCN3CCOCC3)ccc12
?	?	1%	-8	Cc1cccc(NC(=O)CN2C(=O)S/C(=C\c3ccc(-c4cccc(C(=O)O)c4C)o3)C2=O)c1
-10%	4.0%	-2%	0	Cc1ccccc1S(=O)(=O)Nc1nc2ccccc2nc1NCCO
-2%	4.6%	14%	0	CC1(C)NC(=O)N(CC(O)COc2ccc(-c3ccc(C#N)cc3)cc2)C1=O (configuration not stated)
1%	-4.5%	0%	-9	CC(=O)c1ccc(OCC(=O)NCC2(N3CCCCC3)CCCCC2)cc1
-17%	2.6%	0%&-2%	.	COc1ccccc1CNS(=O)(=O)c1ccc2c(c1)CC(=O)N2C
2%	-0.5%	-5%	.	COc1cccc(C(=O)N2CCN(C(=O)COc3ccc4ccccc4c3)CC2)c1
25%	1.9%	?	-7	Cc1oc(=O)c(NC(=O)c2ccc(Cl)cc2)cc1C(=O)c1ccccc1
-13%	1.8%	.	.	CCOc1ccc(S(=O)(=O)Nc2ccc(C(=O)NCCCN3CCOCC3)cc2)cc1
0%	6.0%	-1%	-6	CC(=O)Cn1ncc(N2CCOCC2)cc1=O
0%	-1.7%	-2%	1	CCCCCCn1c(NCC)nc2c1c(=O)[nH]c(=O)n2C
-6%	-4.0%	-26%	-7	COc1ccccc1C(=O)N(CCC1CCCN1C)c1nc2ccccc2s1 (configuration not stated)
-11%	-0.2%	-7%	-2	Cc1ccc(C2N(c3ccc(Cl)c(Cl)c3)C(=O)C3CCCN32)o1 (configuration not stated)
-18%	-1.1%	-6%	-5	CCCSC1=N/C(=C/c2ccsc2)C(=O)N1c1ccccc1
6%	-0.9%	0%	-3	Cc1cc(C(=O)NC2=NCCS2)c2ccccc2n1
-6%	-3.8%	0%	.	CCOc1ccc(CNS(=O)(=O)c2ccc(-c3ccc(=O)[nH]n3)o2)cc1OC
0%	-0.3%	0%	3	S=C(NCc1ccco1)N1CCC(c2nc3ccccc3o2)CC1
7%	-5.5%	-8%	.	CCN1CCN(C(=O)c2cc(=O)c3cc(C)ccc3o2)CC1
26%	2.7%	2%	-4	COc1ccc(C[C@H]2CN3C(=NC[C@@H]3C(C)C)N2C[C@H](C)NC(=O)c2ccc(C)c(Br)c2)cc1
-11%	2.1%	-1%	-9	CCOC(=O)C1=C(C)N=C2SC(C(=O)OC)=CC(=O)N2C1c1ccc(F)cc1 (configuration not stated)
-2%	-0.5%	4%	8	C/C=N/N(c1ccccc1)c1ccccc1
2%	?	-56%	-2	O=C(NCCc1ccccc1)c1cnc2sccn2c1=O
1%	4.5%	-4%	-1	O=C(COC(=O)Cc1ccsc1)NCC1CCCCC1
8%	-6.0%	-5%	-3	CC(C)C(=O)Nc1ccc(NC(=O)c2cccnc2)cn1
-16%	0.8%	.	.	CCOC(=O)c1c(C)[nH]c(C)c1C(=O)COC(=O)C1CC(=O)N(CCc2ccccc2)C1 (configuration not stated)
0%	4.0%	-9%	4	COc1ccc(NC(=O)N2CCCCCC2)c(OC)c1
-17%	-0.9%	-3%	2	CCOCCn1c(SC)nc2c1c(=O)[nH]c(=O)n2C
-3%	-1.1%	-12%	3	CCCCNC(=O)c1onc(CSc2cc(C)ccc2C)c1C(=O)O
18%	1.4%	-3%	.	Cc1cc(S(=O)(=O)N2CCOCC2)ccc1OCC(=O)N1CCC(C(N)=O)CC1
6%	-2.7%	-1%	-15	Cc1cc(Cl)c(S(=O)(=O)N2CCSCC2)cc1OCC(N)=O
-4%	2.7%	-1%	1	c1ccc(CNC23CC4CC(CC(C4)C2)C3)nc1
6%	0.5%	.	.	C1CC(=NN=C2CCSCC2)CCS1
-1%	1.6%	.	.	COc1ccc(CNC(=O)[C@@H]2CC=C[C@@H]3CCN(C4CCCCC4)C(=O)[C@@H]32)cc1
-23%	-3.0%	-4%	0	CCC1=NN(C(=O)Cc2ccc([N+](=O)[O-])cc2)C(O)(C(F)(F)F)C1 (configuration not stated)
?	?	7%	.	CCOC1=C/C(=C/c2c(N)n3nc(CC(=O)N4CCCC4)sc3nc2=O)C=CC1=O
-6%	?	-1%	-3	CC1Cc2ccccc2N1C(=O)c1cc2sccc2n1Cc1ccc(F)cc1 (configuration not stated)
-20%	4.0%	0%	0	CCc1ccc(N2C(=O)C3C4CCC(C4=C(C)C)C3C2=O)cc1 (configuration not stated)
-10%	6.3%	15%	1	CS(=O)(=O)N(CC(=O)Nc1ccc(CC#N)cc1)c1ccc(C23CC4CC(CC(C4)C2)C3)cc1
-2%	-4.8%	.	.	O=C(COC(=O)c1ccc(O)cc1)NC(c1ccccc1)c1ccccc1
-7%	0.5%	.	.	CN(CC(=O)Nc1ccc(F)cc1)C(=O)CN1C(=O)NC2(CCCC2)C1=O
0%	1.3%	-6%	.	Cc1ccc(S(=O)(=O)c2nnn3c2nc(N2CCC(C(N)=O)CC2)c2ccccc23)cc1
9%	-1.3%	18%	.	COc1ccc(NC(=O)/C=C/c2ccc(OC(F)F)cc2)cn1
17%	4.0%	-26%	10	CCc1ccc(C(=O)CSc2nc(C)cc(=O)[nH]2)cc1
.	.	-16%	-25	Cc1c(-c2ccc(O)cc2)nc2nc(-c3ccccc3)c(-c3ccccc3)nn12
12%	-1.1%	-8%&-9%	.	COc1cccc2c1Oc1ncccc1N(C(=O)CCC(=O)NCc1ccccc1Cl)C2
26%	3.5%	-20%	1	O=C(NCCc1ccccc1)c1ccc(-c2ccc(F)cc2)o1
3%	-2.3%	-6%	4	COc1ccc(CC(=O)N2CC(C)CC(C)C2)cc1OC (configuration not stated)
20%	-4.1%	.	.	CCOC(=O)C1CCCN(C(=O)c2ccc(-c3ccccc3Cl)o2)C1 (configuration not stated)
7%	0.2%	?	-6	COc1ccc2[nH]c3c(N4CCc5ccccc5C4)ncnc3c2c1
5%	-0.3%	14%	-5	Cc1cc(C)cc(N(CC(=O)N2CC=C(c3ccccc3)CC2)S(=O)(=O)c2c(C)noc2C)c1
-23%	0.2%	-8%	.	CCn1c(/C=C/c2ccc(F)cc2)nc2ccccc2c1=O
3%	4.1%	.	.	O=C(COC(=O)Cn1[nH]c(=O)c2ccccc2c1=O)Nc1c(Cl)cccc1C(F)(F)F
1%	2.1%	-30%	-5	CCOc1ccc(CNC(=S)N/N=C/c2cccnc2)cc1
?	?	21%	-11	O=C(c1nn2c(C(F)(F)F)cc(-c3ccco3)nc2c1Br)N1CCCc2ccccc21
33%	0.2%	0%	.	COc1ccc(OCC(=O)Nc2ccc(S(=O)(=O)N3CCCC3)cc2)cc1

The list goes on:
Rango dissoc inh	Rango-impB inh	miR-21 FLuc	GLA inh pH 4.5	Compound
-8%	0.7%	-1%	-2	CC(C)Cn1cc(F)c(=O)n(CC(C)C)c1=O
-8%	2.7%	-5%	.	O=C(Nc1ccc2ncccc2c1)c1ccccc1
1%	-1.1%	1%	-7	CCC(=O)N/C(=N/c1nc(C)cc(C)n1)Nc1ccccc1
-12%	3.2%	16%	1	COCCCNC(=O)c1cc2c(=O)n(C)c3ccccc3c2n1C
-11%	1.2%	26%	0	COc1ccc(N2CCc3c(C)nc4c(OC)cc(OC)cc4c32)cc1
-7%	0.3%	6%	.	NS(=O)(=O)c1ccc(CCNC(=O)C(c2ccccc2)c2ccccc2)cc1
2%	-3.7%	-11%	-1	CCCC(=O)Nc1ccc(NC(=O)CCc2ccccc2)cn1
9%	-0.1%	9%	.	CC(=O)c1cccc(Nc2nc(-c3sc(C)nc3C)cs2)c1
31%	-0.2%	9%	.	O=C(CN1CCN(CC(=O)Nc2ccc(-c3ccccc3)cc2)CC1)Nc1ccc(F)cc1
-11%	-2.8%	.	.	O=C(CNC(=O)c1ccccc1)OCc1nnc(-c2ccccc2)o1
10%	-4.3%	.	.	CC1CCCC(NC(=O)COC(=O)/C=C/c2ccc([N+](=O)[O-])cc2)C1C (configuration not stated)
10%	-1.6%	-4%	4	Cc1cc(C)n(CC(C)NC(=O)CCc2nnc(CCc3ccccc3)o2)n1 (configuration not stated)
0%	0.2%	.	.	CCN(CC(=O)NCc1cccs1)C(=O)c1cc(Br)ccc1O
1%	-0.1%	1%	-9	Cc1ccc(-n2nc3c(c2NC(=O)c2c(-c4ccccc4Cl)noc2C)CS(=O)(=O)C3)c(C)c1
-14%	0.4%	-3%	10	COc1ccc(CCNC(=O)Cn2cccc2C(=O)c2ccccc2)c(OC)c1
8%	-0.5%	2%	1	Cc1ccc(C(=O)N2CCN(c3ccccn3)CC2)cc1[N+](=O)[O-]
-14%	-0.2%	.	.	CN(C(=O)CSc1ncn[nH]1)C1(C#N)CCCCC1
-3%	-0.4%	.	.	C[C@H](CO)N1C[C@H](C)[C@@H](CN(C)C(=O)NC2CCCCC2)Oc2ccc(NC(=O)C3CCCCC3)cc2C1=O
2%	1.7%	18%	.	CCCNC(=O)c1ccccc1NC(=O)c1ccc2c(c1)NC(=O)C(C)S2 (configuration not stated)
?	?	-15%	.	COc1cc(/C=C2\SC(=S)N(NC(=O)c3ccc(O)cc3)C2=O)ccc1O
?	?	.	?	OC[C@@H]1[C@@H](c2ccccc2)C(c2ccc(F)cc2)=NN1c1ccccc1
1%	-0.5%	-2%	.	O=C(c1ccc(C(F)(F)F)n(Cc2ccc(Cl)cc2)c1=O)N1CCOCC1
0%	-4.4%	-2%	.	Cc1cccc(CNC(=O)C2CCC(=O)N(C3CCCC3)C2)c1 (configuration not stated)
1%	0.9%	1%	-5	Cc1cccc(NC(=O)/C=C/c2ccc3c(c2)OCO3)n1
0%	2.3%	.	.	COc1ccccc1NC(=O)C(C)OC(=O)C(C)SCC(=O)Nc1ccc(C)cc1 (configuration not stated)
10%	-0.2%	-36%	-6	Cc1ccc(NC(=S)N2CCCC2)cc1
?	?	-27%	10	O=C(CSc1ncnc2ccccc12)c1ccco1
5%	0.7%	.	.	O=C(c1cnn(C(=O)c2ccco2)c1)c1cc(F)ccc1O
1%	-0.5%	-7%	.	O=C(N/N=C\c1ccncc1)c1ccc(Br)s1
?	-2.0%	-5%	0	C=CCSC1=N/C(=C\C=C\c2ccco2)C(=O)S1

Single records (already shown). Order of values: Rango dissoc inh	Rango-impB inh	miR-21 FLuc	GLA inh pH 4.5
O=C(c1ccc(C(F)(F)F)n(Cc2ccc(Cl)cc2)c1=O)N1CCOCC1 as listed: 1%	-0.5%	-2%	.
CN(C(=O)CSc1ncn[nH]1)C1(C#N)CCCCC1 as listed: -14%	-0.2%	.	.
COc1ccc(CCNC(=O)Cn2cccc2C(=O)c2ccccc2)c(OC)c1 as listed: -14%	0.4%	-3%	10
Cc1cccc(CNC(=O)C2CCC(=O)N(C3CCCC3)C2)c1 (configuration not stated) as listed: 0%	-4.4%	-2%	.
CCN(CC(=O)NCc1cccs1)C(=O)c1cc(Br)ccc1O as listed: 0%	0.2%	.	.

An excerpt. The share of hits here may be higher or lower than overall.
